GLA inh pH 4.5 = qHTS Assay for Inhibitors of Human alpha-Galactosidase at pH 4.5; purified enzyme, 4-MU-alpha-Gal fluorescence, pH 4.5; activity change, negative = inhibition, % at 105 µM; 230,000 tested, under 10 active; AID 1467, 2008; Alpha-galactosidase A (Homo sapiens), P06280; inconclusive = small, poorly fitted or top-dose-only inhibition, or a rising curve; inactive = flat fitted curve, though single readings scatter; no compound was filed as active;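 also: 0% = full activity with enzyme and -100% = basal without enzyme; dose as in the result columns while the protocol names 77 µM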
Target sequence (P06280 whole entry, looked up): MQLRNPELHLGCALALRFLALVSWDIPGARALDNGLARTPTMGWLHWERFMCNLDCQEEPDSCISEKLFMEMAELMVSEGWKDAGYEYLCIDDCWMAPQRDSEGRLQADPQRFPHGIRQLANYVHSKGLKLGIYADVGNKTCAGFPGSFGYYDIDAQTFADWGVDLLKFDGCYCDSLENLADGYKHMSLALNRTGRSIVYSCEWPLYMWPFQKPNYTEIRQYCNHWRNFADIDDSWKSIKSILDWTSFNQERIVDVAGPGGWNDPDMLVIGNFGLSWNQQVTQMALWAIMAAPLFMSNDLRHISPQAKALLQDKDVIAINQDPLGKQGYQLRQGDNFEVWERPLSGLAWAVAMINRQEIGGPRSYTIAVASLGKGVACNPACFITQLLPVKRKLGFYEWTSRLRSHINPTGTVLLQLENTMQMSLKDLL
miR-21 reporter = qHTS Assay for Modulators of miRNAs and/orActivators of miR-21. Potency, µM (doses to about 38.3 µM), inactives show at the top dose reporter change, positive = more light. AID 2288, 2010. 340,000 tested, under 10 active. HeLa miR-21 FLuc reporter, luciferase, 48 h; active = well fitted rising curve with a large enough effect; inconclusive = small, poorly fitted or top-dose-only effect; inactive = no such curve, though single readings can be large or run the other way;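 also: % of control where 0% means no effect; miR-21 action dims this reporter so a rising signal means less miR-21 action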
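HeLa cells stably expressing CMV-driven firefly luciferase with a downstream miR-21 binding sequence, endogenously expressing miR-21, were treated with titrations (up to about 40uM final) for 48 hours at 37 degree Celsius. Luciferase luminescence was read after lysis.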
Rango release inh = qHTS Assay for Inhibitors of RanGTP induced Rango (Ran-regulated importin-beta cargo) - Importin beta complex dissociation; Snurportin-1 (Homo sapiens) + GTP-binding nuclear protein Ran (Homo sapiens) + Importin …; Biochemical FRET Rango-importin beta, RanGTP-induced dissociation; Potency, µM (titrated, usually from 46.1 µM), for inactives: at the top dose activity change, negative = inhibition; hit rate 0.071% among 340,000; active means falling FRET ratio curve, often poorly fitted, with flat reads before Ran was added; inconclusive means other falling curves, or compound fluorescence or quenching; inactive means flat or rising ratio curve;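 also: potency is read from the fitted curve at half-maximal effect; % of control where 0% means no effect; nearly all actives have a fitted effect of over 45% in size; -100% = wells without RanGTP and RCC1; the record marks most hits as doubtful in a second field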
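Compounds sat 5 min at room temperature with 0.1 uM Rango biosensor plus 0.25 uM importin beta, then FRET pre-read. RanGTP-RCC1 (0.6 uM Ran, 2mM GTP, 0.2 uM RCC1) added for 45 min, and the CFP/YFP post-read measured blocked complex dissociation.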
Rango-impB inh = qHTS Assay for Inhibitors of Rango (Ran-regulated importin-beta cargo) - Importin beta complex formation | Importin subunit beta-1 (Homo sapiens), Q14974 | Rango CFP/YFP FRET sensor + importin beta, 45 min | Potency, µM (doses to about 92.2 µM), without a hit: top-dose inhibition of complex formation | hit rate 0.031% among 340,000; active = rising FRET ratio curve, often small or poorly fitted; inconclusive = mostly compound fluorescence or quenching in the first reads; inactive = flat curves in all reads;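 also: potency is read from the fitted curve at half-maximal effect; 0% = DMSO wells and 100% = buffer wells lacking importin beta; nearly all actives have a fitted effect of over 15% in size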
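FRET biosensor (snurportin 1 IBB flanked by EYFP and cerulean), 50 nM, with compound 5 min, then 0.125 microM importin beta in PBS, 1 mM DTT, 0.02% Tween-20, 0.1% BSA. CFP/YFP ratio read after 45 min at room temperature; pre-read flags interference.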
Starred values were filed as active, the others as inactive; ? = inconclusive; · = not tested or not shown; & = joins results of further samples.

GLA inh pH 4.5	miR-21 reporter	Rango release inh	Rango-impB inh	SMILES
-3	2%	1%	5.0%	CC1=NN(c2ccc(C)cc2C)C(=O)C1C(c1ccccc1O)C1C(=O)N(c2ccc(C)cc2C)N=C1C (centres undefined)
-3	-4%	8%	-5.7%	COCCCn1c(SCC(=O)NCc2ccccc2)nc2ccccc2c1=O
·	1%	11%	-0.3%	c1ccc(CN2CCN(c3ncccn3)CC2)cc1
·	·	9%	?	Nn1c(COc2ccccc2F)nnc1SCC(=O)NC1CCCCC1
·	·	0%	2.3%	CC(OC(=O)c1ccc(NC(N)=O)cc1)C(=O)Nc1ccc2c(c1)OCCO2 (centres undefined)
-1	-48%	9%	0.7%	CCCc1cc(C(=O)NC2CCCCC2)no1
-12	-2%	-10%	-3.7%	COCCNS(=O)(=O)c1ccc(C2CNC(=O)C2)cc1 (centres undefined)
1	-2%	-15%	?	CC1=C(C(=O)Nc2ccccc2)C(c2ccc(Cl)cc2)n2c(s/c(=C/c3cccc(OCC(=O)O)c3)c2=O)=N1 (centres undefined)
-14	3%	2%	-0.3%	O=S(=O)(Nc1cccc(CCc2ccccn2)c1)c1ccc2ccccc2c1
-6	-16%	-4%	0.3%	COCCNC(=O)c1onc(CSc2ccc(C(C)C)cc2)c1C(=O)O
·	·	-6%	-2.8%	O=C(OCC(=O)N1CCCc2ccccc21)c1cccc(S(=O)(=O)N2CCOCC2)c1
·	17%	0%	-1.0%	COc1ccc(N(CC(=O)NCCSCc2ccccc2C)S(=O)(=O)c2ccccc2)cc1
5	-11%	4%	-4.5%	CC(C)(C)n1nnc(CCc2nnn(C(C)(C)C)n2)n1
17	-11%	-6%	0.6%	CCN(CC)S(=O)(=O)c1ccc(N2CCOCC2)c(NC(=O)C2CCCC2)c1
·	·	0%	-2.2%	N#Cc1ccc(NCC(=O)Nc2ccc(S(=O)(=O)N3CCCCC3)cc2)cc1
·	·	-15%	3.6%	O=C1CCN(Cc2ccccc2)S(=O)(=O)c2c(F)cc(F)cc21
·	0%	?	3.8%	CCCOc1ccc(CNC(=O)C2CCN(c3nnc(N4CCCC4=O)s3)CC2)cc1
0	-3%	1%	-1.2%	CC(C)(C)OC(=O)N[C@@H](Cc1ccccc1)c1nnc(SCC(=O)O)o1
5	-49%	-2%	0.2%	CC(C)(C)N=Cc1cc(-c2ccccc2)sc1O
·	-4%	6%	0.5%	OCC1(CCCc2ccccc2)CCN(C2CCC2)CC1
·	-1%	?	-1.6%	COCc1ccc(C(=O)NC2CC(C)(C)Cc3c2cnn3-c2ccc(OC)cc2)o1 (centres undefined)
·	·	-11%	-2.6%	CCCCn1c(N)c(N(CCOC)C(=O)C2CCN(S(=O)(=O)c3ccccc3)CC2)c(=O)[nH]c1=O
-3	-3%	-11%	0.1%	Cc1ccc(S(=O)(=O)N2CCN(C(=O)Cc3ccccc3)CC2)cc1
·	-21%	0%	-3.1%	COc1cc(C(=O)Nc2nnc(S(=O)(=O)N3CCCCCC3)s2)cc(OC)c1OC
·	-10%	1%	?	Cc1ccc(-c2cc(C(=O)N3CC(C)CC(C)C3)c3ccccc3n2)o1 (centres undefined)
·	-1%	40%	-1.7%	CCOC(=O)CCCn1ccc2cc(S(=O)(=O)N3CCCC3)ccc21
-5	-7%	-5%	0.0%	Cc1cc2c(ncn2Cc2ccccc2)c(N)c1C
0	0%	2%	1.8%	COCCN(C(=S)Nc1cccc(Cl)c1C)C(C)c1ccco1 (centres undefined)
·	·	-6%	-0.4%	O=C(c1ccc(F)cc1)C1CCN(C(=O)c2ccc(Cl)cc2)CC1
-9	0%	-1%	-0.9%	C=CCn1c(-c2ccccc2)nc(=S)c2c1CCCC2
2	-7%	8%	4.6%	Cc1nc(NC(=S)NC(=O)COc2ccc(Cl)cc2)ccc1Br
-1	-2%	-15%	?	O=C(c1cccn2c(=O)c3ccccc3nc12)N1CCN(c2ccccn2)CC1
·	0%	10%	-2.6%	CC(=O)N1CCOc2ccc(S(=O)(=O)NCc3ccc(F)cc3)cc21
·	16%	-2%	0.1%	Cc1ccc2occ(/C=N/NC(=O)c3ccc(Cl)cc3)c(=O)c2c1
·	1%	-12%	-0.6%	COCCn1cnc2c1c(=O)n(Cc1cc(C(C)=O)ccc1OC)c(=O)n2Cc1ccccc1
1	3%	14%	-1.6%	Cc1ccc(N(C(=O)C2CCCC2)C2C=CS(=O)(=O)C2)cc1C (centres undefined)

One compound at a time (already shown). Screens in order: GLA inh pH 4.5 | miR-21 reporter | Rango release inh | Rango-impB inh
Cc1ccc2occ(/C=N/NC(=O)c3ccc(Cl)cc3)c(=O)c2c1 across the screens: · | 16% | -2% | 0.1%
Cc1cc2c(ncn2Cc2ccccc2)c(N)c1C across the screens: -5 | -7% | -5% | 0.0%
CCOC(=O)CCCn1ccc2cc(S(=O)(=O)N3CCCC3)ccc21 across the screens: · | -1% | 40% | -1.7%

The results go on.
GLA inh pH 4.5	miR-21 reporter	Rango release inh	Rango-impB inh	SMILES
2	-19%	1%	-1.1%	O=C(Cn1cnc2ccccc21)NC(c1ccccc1)c1ccccc1
0	-38%	12%	-4.8%	CC(=O)N1N=C(c2ccc(Cl)cc2)OC1c1ccc(C(C)C)cc1 (centres undefined)
·	8%	-12%	3.8%	CC(C)(C)OC(=O)N1CCC(Cc2cc(-c3cccc(Br)c3)no2)(C(=O)O)CC1
5	-7%	-2%	-1.4%	O=C(C/C=N\OCc1ccc([N+](=O)[O-])cc1)Nc1ccc(Br)cc1
-2	-47%	7%	-1.3%	Cc1cc(C(=O)N/N=C/c2cccc(Cl)c2Cl)no1
7	-6%	5%	-0.4%	CCOC(=O)N1CCC(NC(=O)c2ccc3c(Cl)c4c(nc3c2)CCCC4)CC1
·	1%	10%	-1.9%	Cc1ccc(CNC(=O)C(c2ccccc2)c2ccccc2)cc1
1	3%	-7%	1.1%	COc1ccccc1CNC(=O)CCC(=O)Nc1nnc(C(C)C)s1
4	-1%	4%	0.7%	CCc1ccccc1NC(=O)c1ccc(NS(C)(=O)=O)cc1
·	6%	-3%	-0.1%	CC(C)OP(=O)(OC(C)C)C1(NS(=O)(=O)c2ccc(Cl)cc2)C=C(Cl)C(=O)C(Cl)=C1
5	-3%	4%	-1.4%	O=C(CSc1nncc(=O)[nH]1)NCc1ccccc1
·	-2%&0%	2%	-4.3%	COc1ccccc1NC(=O)Cn1cnc2c(nc3n2CCCCC3)c1=O
·	·	-7%	0.3%	CC(=O)N1CC(C(=O)Nc2ccc3c(c2)OCO3)Oc2ccccc21 (centres undefined)
18	-3%	16%	5.6%	Cc1ccc(NC(=O)Cn2cc(S(=O)(=O)c3ccc(F)cc3)c(=O)c3cc(F)ccc32)cc1
-8	-36%	-11%	-2.7%	CCc1ccc2nc(N3CCN(C)CC3)c(C#N)cc2c1
·	·	2%	4.0%	O=C1CC/C=C\C[C@@H](CC(=O)N(CCO)Cc2ccccc2)C(=O)NCCO1
·	5%	-15%	-0.1%	O=c1cc(-c2cc3ccccc3o2)c2cc(O)ccc2o1
-6	-2%	-19%	-0.6%	Cc1cccc(CSc2nnc(NC(=O)c3ccco3)s2)c1
10	0%	22%	-0.8%	O=C(Cn1cc(C(F)(F)F)ccc1=O)NC(c1ccccc1)c1ccccc1
·	-5%	12%	?	Cc1ccc(S(=O)(=O)CC(=O)Nc2nc3ccc(S(N)(=O)=O)cc3s2)cc1
9	-14%	?	?	Cc1cccc(NC(=O)CN2C(=O)N/C(=C/c3ccc(-c4cccc(C(=O)O)c4C)o3)C2=O)c1
-8	-1%	·	·	O=[N+]([O-])c1cccc(-c2nc(Oc3ccc(Cl)cc3)c3ccccc3n2)c1
·	·	-13%	?	N#CC(=C(O)COC(=O)CCC1CCCCC1)c1nc2ccccc2[nH]1
0	-3%	15%	1.0%	C=CCNC(=O)c1ccccc1NC(=O)c1ccccc1C

5 compounds already listed, arranged by their value in miR-21 reporter, largest number first:
smiles	GLA inh pH 4.5	miR-21 reporter	Rango release inh	Rango-impB inh
Cc1cccc(CSc2nnc(NC(=O)c3ccco3)s2)c1	-6	-2%	-19%	-0.6%
Cc1ccc(NC(=O)Cn2cc(S(=O)(=O)c3ccc(F)cc3)c(=O)c3cc(F)ccc32)cc1	18	-3%	16%	5.6%
Cc1ccc(S(=O)(=O)CC(=O)Nc2nc3ccc(S(N)(=O)=O)cc3s2)cc1	·	-5%	12%	?
Cc1cccc(NC(=O)CN2C(=O)N/C(=C/c3ccc(-c4cccc(C(=O)O)c4C)o3)C2=O)c1	9	-14%	?	?
CCc1ccc2nc(N3CCN(C)CC3)c(C#N)cc2c1	-8	-36%	-11%	-2.7%

New compounds follow
GLA inh pH 4.5	miR-21 reporter	Rango release inh	Rango-impB inh	SMILES
-12	-17%	9%	?	COc1cc(C)nc2nc(SCc3ccccc3)nn12
8	-3%	0%	-2.9%	COc1ccc(NCC(=O)N/N=C/C(C)c2ccccc2)cc1 (centres undefined)
·	·	5%	-0.5%	Cc1ccc(-n2nnnc2SCC(=O)c2c(N)n(C3CC3)c(=O)[nH]c2=O)cc1C
·	-3%	2%	0.3%	COc1cc(OC)c(OC)cc1CCC(C)NC(=O)Cc1ccccc1 (centres undefined)
-1	-3%	0%	-2.5%	CC(C)OC(=O)CSc1n[nH]c(-c2cccnc2)n1
2	-5%	-2%	-1.8%	CC(C)(C)c1ccc(C(CC(=O)O)NC(=O)CCCc2ccccc2)cc1 (centres undefined)
7	-12%	-1%	-0.1%	Cc1cc(NC(=O)c2cc3nc(C4CC4)cc(C(F)(F)F)n3n2)no1
2	-2%	-6%	1.0%	COc1ccccc1CN1CCNC(=O)C1CC(=O)NC1Cc2ccccc2C1 (centres undefined)
-21	-7%	-6%	0.7%	CC(C)Sc1nc2ccccc2c(=O)[nH]1
·	0%	-4%	-0.3%	Cc1cc(C)cc(NC(=O)CSc2nnc(C3CC3)n2CC2CCCO2)c1 (centres undefined)
·	-44%	?	-0.3%	O=C(Nc1ccccn1)c1sc2cc([N+](=O)[O-])ccc2c1Cl
-10	-11%	1%	6.1%	OC(COCc1cccs1)CN1CCN(c2ccccn2)CC1 (centres undefined)
-1	2%	5%	0.4%	Cc1ccccc1OCC(=O)Nc1ccc2c(c1)n(C)c(=O)n2C
·	-26%	28%	0.2%	O=C(CCS(=O)(=O)c1ccc(F)cc1)N1CCOCC1
·	·	14%	5.3%	O=C(CSc1nc2nn(-c3ccccc3)c(=O)c-2c2n1CCCCC2)c1ccc(OC(F)F)cc1
1	-4%	8%	-6.0%	COC(=O)c1ccc(NC(=S)N2CCN(Cc3ccccc3OC)CC2)cc1
-7	-1%	16%	-1.5%	CCCCC(=O)OCC(=O)Nc1ccc(SC(F)F)cc1
1	-16%	1%	-3.7%	COc1cccc(C2CC(c3ccccc3Cl)Nc3nc(N)nn32)c1 (centres undefined)
-3	-3%	?	-0.3%	Cc1nn(C)cc1C1C2=C(CC(C)(C)CC2=O)OC2=C1C(=O)CC(C)(C)C2
0	-4%	-5%	0.6%	Cc1[nH]c2ccccc2c1C(=O)COC(=O)Cn1cnc2ccccc21
-9	-2%	-2%	-0.7%	O=C1CC(C(=O)Nc2ccc(Br)cc2)S/C(=N\N=C\c2ccco2)N1 (centres undefined)
·	-2%	-14%	-5.1%	Cc1ccc(Oc2cc(NN3CCCCC3)c([N+](=O)[O-])cc2[N+](=O)[O-])c(Cl)c1
-9	15%	-12%	4.6%	CC(=O)Nc1ccc(OCC(O)CN2CCN(c3cc(Cl)ccc3C)CC2)cc1 (centres undefined)
4	-3%	4%	0.0%	COCCn1c(=NC(=O)c2ccc(S(=O)(=O)N3CCc4ccccc4C3)cc2)sc2cc(OC)ccc21

Screening data from PubChem.

Only part of the results is shown, so the mix of outcomes need not match the whole.
